# Screens (PubChem)
# Yeast UUG start = modulators of yeast start codon fidelity, primary screen, whole organism, S. cerevisiae, single point, plate reader; S. cerevisiae UUG-firefly luciferase reporter, luminescence/redox ratio; activity score, % at 18.7 µM; 0.13% of 350,000 active;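 active = replicate mean at a twofold rise or more, about +100% in these data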;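 also: firefly luciferase made from a UUG start codon reports start codon fidelity; reporter light over untreated wells divided by growth signal over untreated wells; some hits fall short of that in this replicate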
# eIF4H inh = human eIF4H binding inhibitors, primary screen, translation initiation inhibitor project, biochemical, uHTS, fluorescence polarization; Eukaryotic translation initiation factor 4H (Homo sapiens), Q15056; eIF4H fluorescence polarization binding assay; inhibition, % at 35 µM; 0.94% of 290,000 active;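 active = 50% or more with normal probe brightness, or confirmed in later tests; inconclusive = above 50% with abnormal brightness, or retests that disagree; inactive = below 50% or failed in later tests; about a fifth of its hits are not listed in these tables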;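 also: calls also rest on retests at 20 µM and on dose response follow-up; 0% = protein and probe with vehicle and 100% = probe without protein; strong numbers were not always called active; many hits fall short of the cut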
# PABP FP inh = PABP poly(A) RNA binding inhibitors, primary screen, biochemical, fluorescence polarization, uHTS; Polyadenylate-binding protein 1 (Homo sapiens), P11940; inhibition, % at 35 µM; 1% of 290,000 active; AID 2014, 2009;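 active = 50% or more with normal probe brightness, or confirmed in later tests; inconclusive = above 50% with abnormal brightness, or retests that disagree; inactive = below 50% or failed in later tests; about a fifth of its hits are not listed in these tables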;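 also: calls also rest on retests at 20 µM and on dose response follow-up; controls were probe without protein and protein plus probe with vehicle; some compounds called inactive have numbers as strong as hits; many hits fall short of the cut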
# Target sequence (P11940 whole entry, looked up): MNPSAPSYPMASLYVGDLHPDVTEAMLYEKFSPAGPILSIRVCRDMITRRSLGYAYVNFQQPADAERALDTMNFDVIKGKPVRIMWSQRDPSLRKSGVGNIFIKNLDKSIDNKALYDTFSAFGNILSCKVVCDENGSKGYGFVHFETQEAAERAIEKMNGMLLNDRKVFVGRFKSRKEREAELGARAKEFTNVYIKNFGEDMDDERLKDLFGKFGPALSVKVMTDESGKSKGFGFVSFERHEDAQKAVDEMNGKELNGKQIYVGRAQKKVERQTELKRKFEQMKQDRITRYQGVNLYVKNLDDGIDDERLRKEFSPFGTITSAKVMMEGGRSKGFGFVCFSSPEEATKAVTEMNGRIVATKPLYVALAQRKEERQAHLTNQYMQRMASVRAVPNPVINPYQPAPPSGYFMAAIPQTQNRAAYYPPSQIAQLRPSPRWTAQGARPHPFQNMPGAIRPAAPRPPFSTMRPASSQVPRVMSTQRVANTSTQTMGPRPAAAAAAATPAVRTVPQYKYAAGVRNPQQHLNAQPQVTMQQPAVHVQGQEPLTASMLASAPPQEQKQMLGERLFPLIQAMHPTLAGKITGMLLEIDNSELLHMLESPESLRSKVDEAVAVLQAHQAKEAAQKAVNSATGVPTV
# Rce1 inh = yeast Rce1p protease inhibitors, primary screen, biochemical, fluorescence, cell-free homogeneous; CAAX prenyl protease 2 (Saccharomyces cerevisiae (strain ATCC 204508 / S288c)), Q03530; yeast membranes, quenched prenylated peptide cleavage fluorescence; AID 2563, 2010; calls only; 0.27% of 290,000 active;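 active = fall in fluorescence gain of 50% or more versus controls, with final raw signal at or below 3038400; inconclusive = same 50% fall but final raw signal above 3038400; inactive = fall in fluorescence gain under 50%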;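 also: plate controls were neutral control wells for no effect and wells lacking membranes for full effect; tested at 10 µM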
# Env fusion inh = inhibitors of HIV-1 Env-driven cell-cell fusion, primary screen, HeLa-JRFL effector, CEM21 target cells, luciferase; 1.1% of 360,000 active; AID 651610, 2012; inhibition, % at 12.3 µM;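 active = mean replicate inhibition score of at least 50 and every replicate individually at or above 50; inconclusive = only one of the two criteria met; inactive = mean below 50 and not all replicates reaching 50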;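 also: 0% = plate neutral controls and 100% = maraviroc near 300 nM; one replicate is shown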
# MT1-MMP act inh = blockers of MT1-MMP proenzyme processing, primary screen, HT1080 RFP-PRO-GFP cells, GFP/RFP fluorescence; GFP/RFP ratio fluorescence, overnight; percent of plate control window, DMSO zero; GFP/RFP ratio change, % at 20 µM; 0.061% of 360,000 active;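 active = GFP/RFP ratio change of at least 30% with cell ATP level not reduced by more than half and red fluorescence within 50% of control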; also: strong numbers were not always called active
#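 Material – HT1080 RFP-PRO-GFP cells · Control set – DMSO wells and RFP-L50D-GFP cells · Incubation – overnight cell settling, then overnight compound exposure, 37 °C, 5% CO2 · Compound dosing – single-point 20 µM compound, 1% DMSO · Read-out – GFP/RFP fluorescence ratio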
# CSC inhib = cancer stem cell viability inhibitors, primary screen, luminescence; cancer stem cell-like cells viability; inhibition, % at 7.5 µM; 1.1% of 300,000 active;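 active = mean at 75% or more and at least half the replicates too; inconclusive = mean and replicates disagree; tested in HMLE shEcad cells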;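 also: 0% = median of negative and 100% = median of positive control wells; the first replicate is given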
# MT1-MMP act inh RFP = further read-out of MT1-MMP act inh, marked with its call; RFP signal change, %; measured here: RFP expression control read;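 0 = vehicle wells; hits needed this value within 50% of zero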
# Starred values were filed as active, the others as inactive; i = inactive; ? = inconclusive; / = not tested or not shown.
SMILES,Yeast UUG start,eIF4H inh,PABP FP inh,Rce1 inh,Env fusion inh,MT1-MMP act inh,MT1-MMP act inh RFP,CSC inhib
CCC1(c2ccccc2)NC(=O)N(CC(=O)Nc2cc(S(=O)(=O)N3CCCCCC3)ccc2OC)C1=O (stereo unspecified),21,/,/,i,12,-1,-7,3
CC(=O)N1CCN(c2ccc(Oc3nnnn3-c3ccccc3)cc2)CC1,-5,3,0,i,22,8,-15,14
Oc1ccc2ccccc2c1CNc1cnc2ccccc2c1,-2,-8,7,i,-40,1,7,-11
Clc1ccc(-c2c[n+]3c(n2-c2ccccc2)SCC3)cc1,10,5,10,i,19,0,-14,-6
CCC(=O)Nc1ccc2c(c1)ncn2-c1ccccc1OC,-15,-1,1,i,/,0,3,-3
CCOc1ccccc1-c1nc(-c2cccc(Br)c2)no1,/,7,-6,i,/,-7,-4,0
Cc1cc(NS(=O)(=O)c2cn(C)nc2C)no1,4,-3,6,i,-15,-3,-2,-8
C=CC[C@@H](CC(=O)NCCO)C(=O)NC[C@H](OC(=O)[C@@H](CC=C)CC(=O)OC(C)(C)C)c1ccccc1,14,/,/,/,16,10,4,-5
COc1ccc(OC)c(S(=O)(=O)N2CCCC(C(=O)N3CCCC3)C2)c1 (stereo unspecified),-9,-7,-4,i,6,2,2,30
Cc1ccccc1OCC(=O)N/N=C/c1ccc(N2CCOCC2)o1,-7,-5,8,i,/,1,5,21
Cc1cc(C)cc(N(CC(=O)NCCSCc2ccco2)S(C)(=O)=O)c1,-6,8,8,i,4,3,-1,-5
COCCn1c(SCC(=O)NNC(=O)c2ccccc2)nc2ccccc21,/,/,/,/,-68,0,3,-17
O=C(NCc1ccc(F)cc1Cl)C1CCN(S(=O)(=O)N2CCC3(CC2)OCCO3)CC1,5,-5,-2,i,-51,9,4,-15
Cc1nc2cc(-c3ccc(Cl)cc3)nn2c(NCCN(C)C)c1C,/,9,-1,i,3,-4,-6,6
CC(C)(c1ccccc1)c1ccc(OCCN)cc1,-1,-10,9,i,-8,-6,-4,37
O=C(NNS(=O)(=O)c1ccc([N+](=O)[O-])cc1)c1ccc([N+](=O)[O-])cc1,-6,-5,1,i,3,0,1,-6
CC(OC(=O)c1ccco1)C(=O)Nc1ccc(C(F)(F)F)cc1 (stereo unspecified),-14,/,/,/,/,2,-1,-13
CC(C)(C)[C@H]1COC(=O)CCC/C=C/C[C@H](CC(=O)N(CCO)Cc2ccccc2)C(=O)N1,-12,/,/,/,8,5,4,/
CCCN1C(=O)CSC1=Nc1ccccc1,/,-2,-4,i,3,1,1,-5
COc1ccc(C(=O)COC(=O)CCc2nc3ccccc3[nH]c2=O)cc1Br,/,5,-3,i,5,-4,2,-2
O=C(Nc1ccc(-c2nnc(-c3ccccc3)o2)cc1)C(F)(F)F,-17,-23,-14,i,/,1,-1,4
CC(=O)N1CCN(c2ccccc2NC(=O)COc2ccccc2C)CC1,0,-15,-1,i,-14,2,-1,-12
O=C(NCCCNC(=O)c1cc(Cl)ccc1Cl)c1ccco1,3,-10,-2,i,11,-4,2,/
COc1cc(-c2noc(C)c2C#Cc2ccccn2)cc(OC)c1OC,5,22,10,i,-94,9,-2,82*
CCOC(=O)c1sc(NC(=O)CC2OC(=O)c3ccccc32)nc1C (stereo unspecified),-5,/,/,/,-3,-2,2,/

# In the list so far, these contain bromine.
SMILES,Yeast UUG start,eIF4H inh,PABP FP inh,Rce1 inh,Env fusion inh,MT1-MMP act inh,MT1-MMP act inh RFP,CSC inhib
CCOc1ccccc1-c1nc(-c2cccc(Br)c2)no1,/,7,-6,i,/,-7,-4,0
COc1ccc(C(=O)COC(=O)CCc2nc3ccccc3[nH]c2=O)cc1Br,/,5,-3,i,5,-4,2,-2

# Following part:
SMILES,Yeast UUG start,eIF4H inh,PABP FP inh,Rce1 inh,Env fusion inh,MT1-MMP act inh,MT1-MMP act inh RFP,CSC inhib
O=C1CN(CC(=O)N2CCOCC2)c2ccccc2O1,/,14,13,i,/,/,/,4
CCN1C(=O)CSC1=Nc1cccc(C(=O)O)c1,-13,-2,-3,i,-4,0,1,-13
CCOc1ccc2nc(N(CCN(C)C)C(=O)c3ccc4c(c3)CCCC4)sc2c1,-3,-15,-7,i,/,-1,-1,0
COc1ccccc1N1CCN(S(=O)(=O)c2ccc([N+](=O)[O-])cc2)CC1,-4,/,/,/,-32,0,0,/
O=C(CSc1nc2ccccc2o1)N1CCN(C(=O)c2ccco2)CC1,-11,0,-12,i,/,3,2,18
Cn1c(C(=O)NCC2CCCO2)cc2oc3ccccc3c21 (stereo unspecified),-5,13,-2,i,/,2,-4,-2
O=C(CCNC(=O)N1CC(=O)Nc2ccccc21)NCc1cccc(C(F)(F)F)c1,-11,/,/,/,-32,-1,4,/
CN(C(=O)c1cccc(NC(=O)Cc2cccc(NC(=O)C3CCCN(C(=O)C4CCCCC4)C3)c2)c1)C1CC1 (stereo unspecified),3,/,/,/,17,-1,-4,/
C=CCn1c(-c2ccc(Cl)cc2)cnc1SC(C)C(N)=O (stereo unspecified),/,-3,-18,i,-12,5,1,-3
Cc1ccc(C)c(NC(=O)CN(C)C(=O)Cc2ccccc2)c1,/,0,1,i,?,2,2,-2
CCOc1ccc(NC(=O)c2sc(NC(C)=O)c(C(=O)OC)c2C)cc1,/,6,14,i,-15,2,8,-10
CC(C)OC(=O)NCCOC(=O)Nc1ccccc1Cl,/,10,38,i,9,0,-2,-16
CCCc1ccc(-c2ccc(C(=O)O)cc2)nc1,-37,-3,24,i,/,1,3,/
Cc1ccc(C(=O)CCC(=O)N2CCN(C/C=C/c3ccccc3)CC2)cc1,-7,/,/,/,-4,-1,2,/
CC(C)OC(=O)CSc1nnc2c3ccccc3n(C)c2n1,/,-22,0,/,3,4,6,8
O=C(N/N=C/c1ccc(OC(=O)c2ccccc2Br)cc1)c1ccccn1,-21,10,-4,i,-38,4,0,-2
COc1ccc(-n2c(SCC(=O)c3c(N)n(C)c(=O)n(C)c3=O)nc3ccccc32)cc1,43,1,4,i,/,3,4,-9
CN(C)S(=O)(=O)c1cccc(C(=O)N2CCN(C(=O)C3CCCO3)CC2)c1 (stereo unspecified),-2,/,/,/,6,0,1,-20
O=c1c2ccccc2[nH]c(=S)n1CCCN1CCN(c2ccccc2)CC1,-12,-12,-10,i,-11,8,5,24
CN1C(=O)c2ccc(NC(=O)CSc3ccccc3)cc2C1=O,-17,-6,4,i,-13,1,0,-3
Cn1cc(Br)c(C(=O)NNC(=O)c2ccc(Cl)cc2)n1,/,8,3,i,-5,3,3,21
O=C(OCCN=C1NS(=O)(=O)c2ccccc21)C1CC(=O)N(c2ccc3ccccc3c2)C1 (stereo unspecified),-10,3,-10,i,-41,-2,3,-11
O=C(CCSCCc1ccccn1)Nc1ccc(Cl)cn1,/,-8,-13,i,-16,5,3,-8
COc1ccc(CN2CSC(=S)N(Cc3ccc(OC)cc3)C2)cc1,/,-4,7,i,34,-3,-4,19
CN1C(=O)NC(c2ccc(O)cc2)C2=C1CN(c1ccc(O)cc1)C2=O (stereo unspecified),/,3,-8,/,-34,1,-4,-1

# Sorted by the number under Env fusion inh (falling): some entries from above
mol | Env fusion inh
COc1ccc(CN2CSC(=S)N(Cc3ccc(OC)cc3)C2)cc1 | 34
C=CCn1c(-c2ccc(Cl)cc2)cnc1SC(C)C(N)=O (stereo unspecified) | -12
O=C(N/N=C/c1ccc(OC(=O)c2ccccc2Br)cc1)c1ccccn1 | -38

# Part of the list above in order of formula weight, ascending:
SMILES,Yeast UUG start,eIF4H inh,PABP FP inh,Rce1 inh,Env fusion inh,MT1-MMP act inh,MT1-MMP act inh RFP,CSC inhib
CCCc1ccc(-c2ccc(C(=O)O)cc2)nc1,-37,-3,24,i,/,1,3,/
Cn1c(C(=O)NCC2CCCO2)cc2oc3ccccc3c21 (stereo unspecified),-5,13,-2,i,/,2,-4,-2
Cc1ccc(C)c(NC(=O)CN(C)C(=O)Cc2ccccc2)c1,/,0,1,i,?,2,2,-2

# (more compounds)
SMILES,Yeast UUG start,eIF4H inh,PABP FP inh,Rce1 inh,Env fusion inh,MT1-MMP act inh,MT1-MMP act inh RFP,CSC inhib
Cc1onc(-c2ccccc2)c1C(=O)Nc1nc2c(s1)CCCC2,-2,5,3,i,-18,-7,-9,/
COc1ccc(S(=O)(=O)N2CCC(C(=O)NCCC(=O)Nc3ccccc3OC)CC2)cc1,-2,/,/,/,-47,-2,1,/
O=[N+]([O-])c1cccc(-c2csc(Nc3ccccc3)n2)c1,-5,-3,4,i,-38,-1,-6,94*
C(=N\Nc1nc(N2CCOCC2)nc(N2CCOCC2)n1)/c1ccco1,/,22,16,i,/,/,/,-3
Cn1cnnc1SCc1ccc(C(=O)N/N=C/c2cccs2)cc1,/,8,2,/,-3,-2,2,-7
COC(=O)c1ccc(C2C(Oc3ccccc3)C(=O)N2CCc2ccc(OC)c(OC)c2)cc1 (stereo unspecified),-15,6,9,i,-12,-18,-6,-11
CC(C)C(C)(C#N)NC(=O)CSc1nnc(C(F)(F)F)n1C (stereo unspecified),/,-16,1,i,/,0,8,-3
COCCNC(=O)C(c1ccc(C)cc1)N(CCOC)C(=O)CCC(=O)Nc1ccccn1 (stereo unspecified),17,-11,-2,i,-17,2,3,/
Cc1csc(NC(=O)CSc2nnc3ncccn23)n1,-17,19,41,i,25,-5,-4,6
O=C1Nc2ccccc2C(=O)N2[C@H](c3cccc(Br)c3)[C@@H]3C(=O)N(Cc4ccccc4)C(=O)[C@@H]3[C@H]12,-15,-2,7,i,-42,-3,0,-19
CSc1c(-c2ccccn2)c(N)nn1C(=O)C1CC1,/,1,17,i,0,-2,-3,-7
C=CCN1C(=O)C(CC(=O)O)SC1=Nc1ccc(C(=O)O)cc1 (stereo unspecified),-7,-10,-8,i,-13,-1,3,1
CCOC(=O)N1CCN(C(=O)CN(c2cc(C(F)(F)F)ccc2Cl)S(C)(=O)=O)CC1,3,-8,4,i,/,2,4,-17
O=C(/C=C/Nc1ccc(Cc2ccc(N/C=C/C(=O)C(F)(F)F)cc2)cc1)C(F)(F)F,-30,12,1,i,/,-7,-2,-13
CC1CN(C(=O)CCC(=O)NCCCN2C(C)CCCC2C)c2ccccc2O1 (stereo unspecified),-9,-5,-2,i,5,-5,1,-18
O=C(NCCC1=CCCCC1)C1COc2ccccc2O1 (stereo unspecified),-10,-9,-5,/,/,0,2,-11
CCc1ccc(NC(=O)Nn2cnnc2)cc1,-17,-13,1,i,8,2,1,/

# Reformatted: two of the compounds above
O=C1CN(CC(=O)N2CCOCC2)c2ccccc2O1
  Yeast UUG start = / | eIF4H inh = 14 | PABP FP inh = 13 | Rce1 inh = i | Env fusion inh = / | MT1-MMP act inh = / | MT1-MMP act inh RFP = / | CSC inhib = 4

CCN1C(=O)CSC1=Nc1cccc(C(=O)O)c1
  Yeast UUG start = -13 | eIF4H inh = -2 | PABP FP inh = -3 | Rce1 inh = i | Env fusion inh = -4 | MT1-MMP act inh = 0 | MT1-MMP act inh RFP = 1 | CSC inhib = -13

# Only part of the results is shown; rates above refer to the full screens.
